Insulin prom inh: inhibitors of insulin promoter-driven GFP, primary screen, imaging, TRM-6 cells (human fetal islet line), eGFP reporter, cell count. reporter expression induced with tamoxifen. inhibition, % at 2 µM. hit rate 0.9% among 130,000;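 active = inhibition above the mean plus 3 SD, with well images judged a real hit on visual review, cut at about 60% in these data, passing the limit was not always enough; inconclusive = inhibition over the cutoff but images rejected on review; inactive = inhibition not above the cutoff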
GALR2 ag: GALR2 receptor agonists, primary screen, cell-based | Galanin receptor type 2 (Homo sapiens), O43603 | GALR2-expressing cells, agonist activation read-out | activation, %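 (tested at 5 µM)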 | hit rate 0.48% among 140,000 | AID 803, 2007;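 active = above mean plus 3 SD of all compounds, about 5% in these data, not always enough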;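 note: 0% = vehicle buffer wells and 100% = reference agonist at full effect; tested in CHO reporter cells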
Target sequence (O43603 whole entry, looked up): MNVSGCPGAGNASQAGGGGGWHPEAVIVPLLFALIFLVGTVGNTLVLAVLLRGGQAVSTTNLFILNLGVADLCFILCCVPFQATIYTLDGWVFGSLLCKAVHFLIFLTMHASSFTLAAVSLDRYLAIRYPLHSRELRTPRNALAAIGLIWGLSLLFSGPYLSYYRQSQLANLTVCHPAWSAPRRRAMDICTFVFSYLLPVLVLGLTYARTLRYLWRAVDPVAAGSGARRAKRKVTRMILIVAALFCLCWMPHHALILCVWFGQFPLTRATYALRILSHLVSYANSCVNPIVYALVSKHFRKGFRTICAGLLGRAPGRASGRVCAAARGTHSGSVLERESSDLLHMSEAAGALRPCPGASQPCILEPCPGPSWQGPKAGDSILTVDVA
HSV replic up: enhancers of HSV replication in host cells, fold increase, host cell viability; HSV replication augmentation in cells; maximum fold increase; hit rate 0.005% among 220,000; AID 1956, 2009;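 active = peak rise of 1.5-fold or more in the series; inconclusive = self-fluorescent or not available for retest; tested in PC3 cells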;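 note: first round at 10 µM; read as green reporter fluorescence; hits show the peak of a series up to 25 µM; 1 = signal of infected wells without compound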
RGS16-Gao: modulators of RGS16 binding to Galphao, primary screen, biochemical, human proteins, multiplexed bead flow cytometry | bead-based flow cytometry RGS16-Galphao binding, fluorescence; actives lie on both sides | AID 1441, 2008 | hit rate 0.38% among 220,000 | Regulator of G-protein signaling 16 (Homo sapiens) + Guanine nucleotide-binding protein … | binding response (% of control), % at 10 µM;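 active = below 25% or above 175%, edge rows of some plates excepted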;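 note: Galphao activated by GDP with aluminum fluoride before binding; 100% = wells without compound and 0% = beads without RGS; some results beyond the cut were filed as inactive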
Target sequence (O15492 whole entry, looked up): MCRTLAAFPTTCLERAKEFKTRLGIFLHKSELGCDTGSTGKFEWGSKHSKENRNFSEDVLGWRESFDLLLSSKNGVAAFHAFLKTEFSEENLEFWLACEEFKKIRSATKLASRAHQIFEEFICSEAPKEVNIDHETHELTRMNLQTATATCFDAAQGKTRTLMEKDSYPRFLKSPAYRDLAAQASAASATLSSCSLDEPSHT
Target sequence (P09471 whole entry, looked up): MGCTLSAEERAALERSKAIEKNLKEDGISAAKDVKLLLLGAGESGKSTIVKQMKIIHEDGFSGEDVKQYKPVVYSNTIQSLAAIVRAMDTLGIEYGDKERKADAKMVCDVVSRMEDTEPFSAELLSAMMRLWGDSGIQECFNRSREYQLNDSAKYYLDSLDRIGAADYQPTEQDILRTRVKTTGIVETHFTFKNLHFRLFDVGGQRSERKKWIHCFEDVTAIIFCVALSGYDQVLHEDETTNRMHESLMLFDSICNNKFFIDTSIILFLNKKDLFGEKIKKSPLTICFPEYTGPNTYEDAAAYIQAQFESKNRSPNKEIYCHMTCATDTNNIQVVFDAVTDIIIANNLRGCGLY
PKD1 inh: inhibitors of human PKD1 kinase, biochemical, fluorescence polarization | PKD1 kinase fluorescence polarization assay | inhibition, %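 (about 10 µM by stock and volumes)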 | hit rate 0.056% among 200,000 | AID 797, 2007;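 active = inhibition of 50% or more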;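 note: controls were vehicle for no effect and a reference inhibitor for full effect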
Insulin prom inh cell count: also measured in Insulin prom inh; calls as there; normalized cell count, %; measured here: cell count, toxicity; reference of the scale not given here;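 cells exposed to compound for 48 h; stained nuclei by imaging scaled within each plate; lower means fewer cells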
HSV replic up primary fold: second read-out of HSV replic up, no call of its own (marks repeat the call); fold increase; compound at 10 µM; measured here: primary screen fold increase 10 uM; tested in PC3 cells;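 GFP signal in the first replicate; 1 = infected wells without compound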
An asterisk follows results filed as active.

COc1ccc(NC(=O)CSc2nc(C)cc(C(F)(F)F)n2)cc1 was read as Insulin prom inh -69.4, GALR2 ag -1.9, HSV replic up inactive, RGS16-Gao 102.1, PKD1 inh -8.7, Insulin prom inh cell count 104.7 and HSV replic up primary fold 0.83.
Screening CCOc1cccc(-c2nc3cc(C)ccc3o2)c1 returned GALR2 ag -1.8, HSV replic up inactive, RGS16-Gao 103.4, PKD1 inh -10.5 and HSV replic up primary fold 1.
`COc1ccc(-c2nc(C#N)c(NCc3cccnc3)o2)cc1OC` gave Insulin prom inh 11.1, GALR2 ag -0.3, HSV replic up inactive, RGS16-Gao 73.5, PKD1 inh -9.6, Insulin prom inh cell count 83.8 and HSV replic up primary fold 0.85.
COc1ccc(C2CC(c3cccs3)=NN2C(=O)CSc2nnc(N)s2)cc1OC (centres undefined) was read as Insulin prom inh -14.3, HSV replic up inactive, RGS16-Gao 96.5, PKD1 inh 5.0, Insulin prom inh cell count 59.3 and HSV replic up primary fold 0.94.
C#CCOCCOCCOCCNc1nc(N2CCN(C(=O)[C@H](CCC(=O)O)n3cc(C(N)CC(C)C)nn3)CC2)nc(N2CCN(C(=O)[C@H](Cc3ccc(O)cc3)n3cc(C(N)CC(C)C)nn3)CC2)n1 (some centres undefined) was read as HSV replic up inactive, RGS16-Gao 106.8, PKD1 inh -0.1 and HSV replic up primary fold 0.72.
Screening Cc1cc(SCC(=O)OCC(=O)N2CCN(C(=O)c3ccco3)CC2)c(C)cc1Br returned Insulin prom inh 2.9, GALR2 ag -1.6, HSV replic up inactive, RGS16-Gao 104.1, PKD1 inh -6.4, Insulin prom inh cell count 117.5 and HSV replic up primary fold 1.13.
Cc1c(NC(=O)C(C)Sc2nnc(-c3ccccc3)o2)c(=O)n(-c2ccccc2)n1C (centres undefined) was read as Insulin prom inh 14.3, GALR2 ag -1.9, HSV replic up inactive, RGS16-Gao 99.7, PKD1 inh 0.6, Insulin prom inh cell count 30.4 and HSV replic up primary fold 0.9.
Screening Cc1ccc2c(c1)c1c3n2CCCN(Cc2ccccc2)C3CCC1 (centres undefined) returned GALR2 ag -3.8, HSV replic up inactive, RGS16-Gao 102.7, PKD1 inh 8.7 and HSV replic up primary fold 0.9.
Screening COc1ccc(NC(=O)c2nc(SC)ncc2Cl)cc1 returned HSV replic up inactive, RGS16-Gao 100.8 and HSV replic up primary fold 0.94.
Cc1ccsc1C(=O)N1CCC(N2CCC(C(=O)NCC3CCCO3)CC2)CC1 (centres undefined) was read as HSV replic up inactive, RGS16-Gao 106.8, PKD1 inh -5.2 and HSV replic up primary fold 1.
`Cc1noc(C)c1C(=O)N1CCCc2ccccc21` gave Insulin prom inh -35.9, GALR2 ag -0.3, HSV replic up inactive, RGS16-Gao 99.0, PKD1 inh -1.8, Insulin prom inh cell count 109.6 and HSV replic up primary fold 0.93.
`CN(C)C(CNC(=O)/C=C/c1cccc(Cl)c1)c1ccccc1` (centres undefined) gave HSV replic up inactive, RGS16-Gao 99.5, PKD1 inh -6.2 and HSV replic up primary fold 1.
Cc1ccc(CSCc2nc3ccccc3[nH]2)cc1 was read as HSV replic up inactive, RGS16-Gao 96.8, PKD1 inh -3.6 and HSV replic up primary fold 0.84.
For CC(C)c1nnc(NC(=O)CN(C)S(=O)(=O)c2ccc3c(c2)OCCO3)s1 the results were GALR2 ag -1.3, HSV replic up inactive, RGS16-Gao 91.7, PKD1 inh -3.2 and HSV replic up primary fold 0.87.
For O=C(O)c1cccnc1SC1CC(=O)N(c2ccc(OC(F)F)cc2)C1=O (centres undefined) the results were HSV replic up inactive, RGS16-Gao 89.7 and HSV replic up primary fold 1.07.
CC(=O)c1ccc(NC(=O)NCc2ccc(F)cc2)cc1 was read as Insulin prom inh -326.3, HSV replic up inactive, RGS16-Gao 100.2, PKD1 inh -11.0, Insulin prom inh cell count 49.8 and HSV replic up primary fold 1.04.
For COc1cccc(C(=O)Nc2ccccc2OC(F)(F)F)c1 the results were HSV replic up inactive, RGS16-Gao 74.7, PKD1 inh -4.2 and HSV replic up primary fold 1.06.
`CCCCc1c(O)nc(SCC(=O)NC(C)(C)C)n(-c2ccccc2C)c1=O` gave Insulin prom inh -5.3, GALR2 ag -0.3, HSV replic up inactive, RGS16-Gao 103.9, PKD1 inh -0.4, Insulin prom inh cell count 60.0 and HSV replic up primary fold 0.96.
CC1(C(=O)NC2CCCCCCC2)CCC(=O)N1Cc1cccs1 (centres undefined) was read as Insulin prom inh -43.3, GALR2 ag -2.0, HSV replic up inactive, RGS16-Gao 104.6, PKD1 inh -0.1, Insulin prom inh cell count 75.4 and HSV replic up primary fold 0.94.
Screening CN(C)c1ccc(/C=C/C(=O)c2c(O)c3ccccc3oc2=O)cc1 returned HSV replic up inconclusive and RGS16-Gao 107.9.
For CC(=O)O[C@H]1CSC[C@H]1NC(=O)c1ccccc1 the results were Insulin prom inh 48.4, GALR2 ag -2.6, HSV replic up inactive, RGS16-Gao 96.5, PKD1 inh -10.9, Insulin prom inh cell count 146.8 and HSV replic up primary fold 0.983.
Screening CCC12CN3CCN(CC(C3)/C1=N\NC(=O)c1ccc(F)cc1)C2 returned Insulin prom inh -41.2, HSV replic up inactive, RGS16-Gao 38.5, PKD1 inh 4.7, Insulin prom inh cell count 90.8 and HSV replic up primary fold 0.98.
O=c1c2cc(N3CCOCC3)ccc2[nH]c(=S)n1CC1CCCO1 (centres undefined) was read as Insulin prom inh 6.2, GALR2 ag -1.1, HSV replic up inactive, RGS16-Gao 100.7, PKD1 inh -14.6, Insulin prom inh cell count 143.8 and HSV replic up primary fold 0.9.
`S=C(Nc1ccc(Cl)cc1Cl)Nc1ccccc1Oc1ccccc1` gave Insulin prom inh -36.7, GALR2 ag -1.1, HSV replic up inactive, RGS16-Gao 99.4, PKD1 inh -7.4, Insulin prom inh cell count 149.6 and HSV replic up primary fold 0.823.
For COc1cc2c(ccc3cc(OC)c(OC)c(O)c32)cc1O the results were HSV replic up inactive, RGS16-Gao 105.6 and HSV replic up primary fold 0.6.
Cc1c(C(=O)N2CCCCC2)nnn1-c1nonc1N was read as Insulin prom inh -17.2, GALR2 ag -0.4, HSV replic up inactive, RGS16-Gao 101.5, PKD1 inh -4.7, Insulin prom inh cell count 79.1 and HSV replic up primary fold 1.02.
CC(=O)Nc1nc2ccccc2n1Cc1ccccc1C was read as GALR2 ag -2.5, HSV replic up inactive, RGS16-Gao 42.5, PKD1 inh 4.6 and HSV replic up primary fold 0.82.
S=C(NCc1ccco1)N1CCN(c2ccc(Cl)cc2)CC1 was read as Insulin prom inh -9.1, HSV replic up inactive, RGS16-Gao 97.0, PKD1 inh 2.4, Insulin prom inh cell count 48.6 and HSV replic up primary fold 1.06.
NNC(=O)COc1ccccc1F was read as Insulin prom inh -14.3, GALR2 ag -0.4, HSV replic up inactive, RGS16-Gao 108.3, PKD1 inh 1.6, Insulin prom inh cell count 137.0 and HSV replic up primary fold 0.88.
O=C(Nc1cccnc1)C12CC3CC(CC(C3)C1)C2 was read as HSV replic up inactive, RGS16-Gao 106.7, PKD1 inh -5.4 and HSV replic up primary fold 1.01.
`Cc1nc2ccc(S(=O)(=O)NCC(=O)NC(C)c3ccccc3)cc2s1` (centres undefined) gave HSV replic up inactive, RGS16-Gao 106.2, PKD1 inh 3.8 and HSV replic up primary fold 1.
For O=S(=O)(Nc1nc2ccccc2nc1N1CCN(c2ccccc2F)CC1)c1ccc(Cl)cc1 the results were Insulin prom inh 58.3, GALR2 ag -0.6, HSV replic up inactive, RGS16-Gao 95.3, PKD1 inh 1.7, Insulin prom inh cell count 122.8 and HSV replic up primary fold 0.81.
O=C(NN1C(=O)C2CCCCC2C1=O)c1ccco1 (centres undefined) was read as HSV replic up inactive, RGS16-Gao 104.0 and HSV replic up primary fold 0.9.
O=C(OCc1cc2ccccc2[nH]c1=O)c1cccs1 was read as Insulin prom inh 0.0, GALR2 ag -0.4, HSV replic up inactive, RGS16-Gao 101.6, PKD1 inh -0.8, Insulin prom inh cell count 96.7 and HSV replic up primary fold 0.98.
Screening CC(=O)c1cccc(NC(=O)N2CCCC2C(=O)Nc2cccc(C)c2)c1 (centres undefined) returned Insulin prom inh 31.2, GALR2 ag 1.7, RGS16-Gao 100.5, PKD1 inh -1.7 and Insulin prom inh cell count 101.0.
`O=C(O)COc1ccccc1/C=N/NC(=O)CSc1nnc(-c2ccc(Cl)cc2)n1C1CCCCC1` gave HSV replic up inactive, RGS16-Gao 99.9 and HSV replic up primary fold 1.15.
For N=C1/C(=C\c2coc3ccccc3c2=O)C(=O)N=C2SC(c3ccncc3)=NN12 the results were HSV replic up inconclusive and RGS16-Gao 104.2.
CC1CCCC(C)N1C(=O)COC(=O)c1ccc(O)cc1 (centres undefined) was read as Insulin prom inh -20.0, GALR2 ag -0.9, HSV replic up inactive, RGS16-Gao 107.8, PKD1 inh 1.6, Insulin prom inh cell count 87.9 and HSV replic up primary fold 0.96.
Screening COc1ccc(NC(=O)c2nc3ccccc3s2)cc1 returned Insulin prom inh -33.3, GALR2 ag -0.9, RGS16-Gao 99.6, PKD1 inh 2.7 and Insulin prom inh cell count 74.1.
COc1ccc(C(=O)NN2C(=O)C3C(c4ccccc4)C=CC(c4ccccc4)C3C2=O)cc1 (centres undefined) was read as GALR2 ag -0.5, HSV replic up inactive, RGS16-Gao 96.6, PKD1 inh -4.3 and HSV replic up primary fold 1.17.

The final 2 compounds of the part above open the next one:
Screening COc1ccc(NC(=O)c2nc3ccccc3s2)cc1 returned Insulin prom inh -33.3, GALR2 ag -0.9, RGS16-Gao 99.6, PKD1 inh 2.7 and Insulin prom inh cell count 74.1.
COc1ccc(C(=O)NN2C(=O)C3C(c4ccccc4)C=CC(c4ccccc4)C3C2=O)cc1 (centres undefined) was read as GALR2 ag -0.5, HSV replic up inactive, RGS16-Gao 96.6, PKD1 inh -4.3 and HSV replic up primary fold 1.17.
Screening Cc1ccc2nc(NC(=O)c3cccs3)sc2c1 returned Insulin prom inh -36.4, GALR2 ag -1.0, HSV replic up inactive, RGS16-Gao 99.8, PKD1 inh -4.1, Insulin prom inh cell count 109.8 and HSV replic up primary fold 0.97.
Screening CCC(C)NC(=O)c1cnn2c(C)c3c(nc12)CCCC3 (centres undefined) returned Insulin prom inh -30.3, GALR2 ag -0.6, HSV replic up inactive, RGS16-Gao 98.4, PKD1 inh -4.1, Insulin prom inh cell count 89.5 and HSV replic up primary fold 1.03.
For Cc1cc(C)c2nc(C)cc(Nc3ccc(C(=O)N4CCOCC4)cc3)c2c1 the results were HSV replic up inactive, RGS16-Gao 70.2 and HSV replic up primary fold 0.88.
For O=C(Nc1ccc(OCC(=O)N2CCOCC2)cc1)Nc1cccc(Cl)c1 the results were HSV replic up inactive, RGS16-Gao 99.2, PKD1 inh 4.6 and HSV replic up primary fold 0.9.
For N#C/C(=C/c1ccc(N2CCOCC2)o1)c1nc2ccccc2[nH]1 the results were Insulin prom inh inactive, GALR2 ag -1.2, RGS16-Gao 94.0, PKD1 inh -19.8 and Insulin prom inh cell count 134.0.
`O=C(/C=C/c1ccccc1)NCc1cccnc1` gave HSV replic up inactive, RGS16-Gao 99.5, PKD1 inh 7.5 and HSV replic up primary fold 0.97.
CCOC(=O)c1cc(-c2cc3ccccc3o2)n[nH]1 was read as GALR2 ag -0.4, HSV replic up inactive, RGS16-Gao 98.4, PKD1 inh -9.7 and HSV replic up primary fold 1.
CCCc1cc(C(=O)NCc2cccnc2)no1 was read as GALR2 ag -3.0, HSV replic up inactive, RGS16-Gao 52.6, PKD1 inh -9.1 and HSV replic up primary fold 0.95.
`CCCCNC(=O)c1onc(CSc2ccc(F)c(F)c2)c1C(=O)O` gave GALR2 ag -3.9, HSV replic up inactive, RGS16-Gao 102.0, PKD1 inh -14.9 and HSV replic up primary fold 0.88.
For CC1CN(C(=S)NC(=O)c2cccc([N+](=O)[O-])c2)CC(C)O1 (centres undefined) the results were GALR2 ag -3.4, HSV replic up inactive, RGS16-Gao 106.3, PKD1 inh 8.7 and HSV replic up primary fold 0.92.
`COCCCNC(=S)N1CCC(NC(=O)c2ccco2)CC1` gave Insulin prom inh 2.6, HSV replic up inactive, RGS16-Gao 107.6, PKD1 inh 13.5, Insulin prom inh cell count 165.0 and HSV replic up primary fold 0.82.
Screening c1ccc(-c2nnc(-c3ccncc3)o2)cc1 returned Insulin prom inh -11.1, GALR2 ag -1.6, HSV replic up inactive, RGS16-Gao 102.6, PKD1 inh -6.7, Insulin prom inh cell count 67.4 and HSV replic up primary fold 0.92.

The order is random, and some 1.3% of all compounds hit somewhere here.
